CBX7 AlphaScr = CBX7 chromodomain binding inhibitors, primary screen, biochemical, AlphaScreen | Chromobox protein homolog 7 (Homo sapiens), O95931 | AlphaScreen His6-CBX7 / biotin-H3K27me3 peptide binding; hits give low values | normalised signal (fraction of DMSO) (test concentration not listed) | 1.1% of 66,000 active | AID 1224903, 2016; in the data active means normalised signal below about 0.5;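 further: 100 nL library stock added to about 20 µL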
Target sequence (O95931 whole entry, looked up): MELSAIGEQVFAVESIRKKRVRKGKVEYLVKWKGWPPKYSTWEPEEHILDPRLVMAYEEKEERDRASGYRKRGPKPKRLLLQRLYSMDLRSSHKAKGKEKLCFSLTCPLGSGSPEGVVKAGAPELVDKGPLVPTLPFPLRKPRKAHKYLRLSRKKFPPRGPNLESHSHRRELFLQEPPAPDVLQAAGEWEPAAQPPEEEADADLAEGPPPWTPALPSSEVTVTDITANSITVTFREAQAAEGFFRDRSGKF
CBX7 AlphaScr z-score = further read-out of CBX7 AlphaScr, marked with its call; z-score; measured here: z-score of CBX7 signal; some inactives read as strong as hits; reference of the scale not given here;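 same signal on another scale; lower means less binding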
* = called active by the depositor.

SMILES	CBX7 AlphaScr	CBX7 AlphaScr z-score
Cc1n[nH]c(C)c1CCOc1ccccc1Cl	1	0.029
Cc1c(NC(=O)COc2ccccc2)cccc1-c1nc2ncccc2o1	1	0.24
CCCCC(CC)CNC(=O)c1cnn2c(C)c(Cc3ccc(C)cc3)c(C)nc12 (stereo not drawn)	0.95	-1.3
CCN1CCN(C(c2cccs2)C(C)NC(=O)c2ccc(F)cc2)CC1 (stereo not drawn)	1.1	0.78
Cc1ccc(CSc2nc3ccncc3n2Cc2nc(-c3ccccc3F)oc2C)cc1	0.91	-1.2
O=C(CCCOc1ccc(Cl)cc1Cl)Nc1nc(-c2ccccc2)cs1	0.96	-0.83
COc1cccc(CN2CCN(Cc3ccc(OC)c(OC)c3OC)CC2)c1OC	1	-0.042
Cc1c(C(=O)NCc2cccnc2)oc2ccc(S(=O)(=O)N3CCCCC3)cc12	0.78	-3.1
c1ccc(Nc2c(-c3ccsc3)nc3ncccn23)cc1	1	0.67
Cc1ccc(-c2nc(CSCC(=O)NCc3cccnc3)c(C)o2)cc1	0.97	-0.55
CNC(=O)c1c[nH]c2ccc(S(=O)(=O)Nc3cccc(C(F)(F)F)c3)cc2c1=O	0.85	-1.9
O=C(NCCc1c[nH]c2ccccc12)c1cc2c(s1)CS(=O)(=O)C2	1	0.83
CCCOc1ccc(C2C(=O)N(C3CCCCC3)CC(=O)N2Cc2ccccc2)cc1OC (stereo not drawn)	1.1	0.11
O=C(NCC1CCCO1)c1ccc2c(c1)ncn2-c1ccc(F)c(F)c1 (stereo not drawn)	1	-0.018
Cc1cc(C)c2oc(-c3cccc(NC(=O)c4cncc(Br)c4)c3)nc2c1	0.87	-1.5
O=C(CSc1nnc(Cc2cc(=O)[nH]c(=O)[nH]2)n1-c1ccccc1)Nc1ccccc1F	1	1.7
OCCCNc1ncnc2c1cnn2-c1ccc(Cl)cc1	1.1	0.096
COCCNC(=O)c1cc2c(-c3ccc(Cl)cc3)nn(C)c2s1	1.2	0.94
CCOC(=O)C1CCN(C(=O)c2cc(-c3ccc(OCC)cc3)nc3ccccc23)CC1	1.1	1.3
Cc1onc(-c2ccccc2Cl)c1C(=O)Nc1ccc2c(c1)OCO2	1	0.57
COc1ccc(-c2noc(CCC(=O)Nc3ccccc3F)n2)cc1	1.1	2.1
O=C(Cn1nc(-c2ccccc2)ccc1=O)NCCN1CCN(c2ccccc2F)CC1	1.1	2.8
CC(C)Cn1cc(C(=O)NCc2ccc(F)cc2)c2c3ccccc3n(C)c2c1=O	1.1	0.98
CCC(=O)N1CCc2cc(S(=O)(=O)NCCCN3CCN(c4ccccc4F)CC3)ccc21	1.1	0.61
COc1ccc(NC(=O)c2cc(-c3ccc(Cl)cc3)on2)cc1	1	0.042

New compounds follow:
SMILES	CBX7 AlphaScr	CBX7 AlphaScr z-score
CCOc1cccc(N2C(=O)CC(NCCc3ccc(S(N)(=O)=O)cc3)C2=O)c1 (stereo not drawn)	1.1	1.5
O=C(Cn1ncc2c1-c1ccccc1OC2)NC1CC1	1	0.067
CCC1CCCCN1CC(=O)Nc1ccccc1Oc1ccccc1 (stereo not drawn)	0.7	-1.1
COc1ccccc1CNC(=O)C1CCN(S(=O)(=O)c2ccc(C)cc2)CC1	1.1	2.2
COc1ccc(-n2nnc3c(=O)n(C/C=C/c4ccccc4)cnc32)cc1	0.95	-1
O=C(CSc1nccn1-c1ccc(Cl)cc1)Nc1nc2ccccc2s1	1	0.079
COc1ccc(NC(=O)CSc2nccn2-c2cc(C)cc(C)c2)c(OC)c1	0.63	-14
Cc1ccccc1C1(c2ccccc2C)CC1C(=O)Nc1cccc(C(F)(F)F)c1 (stereo not drawn)	1	0.21
O=C(Nc1c(-c2cccs2)nc2ccccn12)c1cccc(F)c1	1.1	2.4
COCCn1cnc2sc(C(=O)Nc3ccc(C(F)(F)F)cc3)c(C)c2c1=O	1.1	2.6
COc1ccc(Nc2cc(C)nc(N3CCOCC3)n2)cc1	1	-0.063
O=c1cc(N2CCN(Cc3ccccc3)CC2)[nH]c(=O)n1-c1ccc(Cl)cc1	1.1	0.62
O=C(c1cc2n(n1)C(C(F)(F)F)CC(c1ccc(Br)cc1)N2)N1CCCC1 (stereo not drawn)	0.99	-0.24
Cc1cc(N2CCN(c3ncccn3)CC2)nc2ccc(NC(=O)c3ccc(F)cc3Cl)cc12	0.88	-0.8
O=C1CN(C(=O)COc2ccc(Cl)cc2)C(c2ccccc2)c2cc(Br)ccc2N1 (stereo not drawn)	0.8	-1.9
O=C(c1ccc2c(c1)N(Cc1ccc(F)cc1)CCS2)N1CCN(c2ncccn2)CC1	0.97	-1
COC(=O)c1cc2occc2n1CC(=O)N(C)c1ccccc1	1	0.14
COc1cc2c(C(=O)Nc3cccc(C(F)(F)F)c3)cn(CC(C)C)c(=O)c2cc1OC	0.9	-2.7
Cc1sc2ncn(CC(=O)NCC(=O)NC3CCCCCC3)c(=O)c2c1C	0.95	-0.52
Cc1nc2ccc(S(=O)(=O)N(C)CC(=O)N3CCc4ccccc4C3)cc2s1	1.3	1.6
O=C(Nc1ccc(Cc2ccncc2)cc1)c1cc(-c2ccccc2)nc2ccccc12	0.76	-2
CCCCCC(=O)Nc1nnc(Cc2ccc(OC)c(OC)c2)s1	1	0.31
Cc1ccc2nc(-c3ccc(NC(=O)Nc4ccc(Cl)cc4)cc3)sc2c1	0.98	-0.47
Cc1ccc(NC(=O)CSc2nnc(CNC(=O)c3cccs3)o2)cc1	1	1.2
Cc1cccc(-c2noc(COc3ccc(C)cc3C)n2)c1	2.8	18

Compounds above that have bromine:
SMILES	CBX7 AlphaScr	CBX7 AlphaScr z-score
Cc1cc(C)c2oc(-c3cccc(NC(=O)c4cncc(Br)c4)c3)nc2c1	0.87	-1.5
O=C(c1cc2n(n1)C(C(F)(F)F)CC(c1ccc(Br)cc1)N2)N1CCCC1 (stereo not drawn)	0.99	-0.24
O=C1CN(C(=O)COc2ccc(Cl)cc2)C(c2ccccc2)c2cc(Br)ccc2N1 (stereo not drawn)	0.8	-1.9

(next part)
SMILES	CBX7 AlphaScr	CBX7 AlphaScr z-score
Cc1nnc(NC(=O)c2ccc(S(=O)(=O)N3CCCCCC3)cc2)o1	0.002*	-1.3*
O=C(NCCc1ccc(Cl)cc1)C1CCN(S(=O)(=O)c2cnc[nH]2)CC1	1	0.43
Cc1c(C(=O)Nc2ccc(C(F)(F)F)cc2)sc2ncn(CC(=O)N3CCC(C)CC3)c(=O)c12	1	0.25
O=C(Nc1ccc2c(c1)OCCO2)C1CCCN(S(=O)(=O)c2cccs2)C1 (stereo not drawn)	0.97	-1.1
COc1ccc(C(C(=O)NC2CCCCC2)N(C)C)cc1 (stereo not drawn)	1	0.87
CC1CCC(NC(=O)c2cc(-c3cccnc3)nc3ccccc23)CC1 (stereo not drawn)	0.91	-1.9
COc1ccc(-n2c(=O)cc(N3CCN(Cc4ccccc4)CC3)[nH]c2=O)cc1	1.2	2.6
NS(=O)(=O)c1ccc(CCNC2CC(=O)N(Cc3ccc(Cl)cc3)C2=O)cc1 (stereo not drawn)	1.1	3.9
O=C(Nc1ccccc1)c1cccc(S(=O)(=O)N2CCOCC2)c1	1.1	0.063
Cn1c(C(=O)N2CCCC(C(=O)NCCN3CCOCC3)C2)cc2sccc21 (stereo not drawn)	1	-0.029
COc1ccc(CCNC(=O)Cc2cn(C)c3ccccc23)cc1OC	0.98	-0.74
Cc1ccc(-c2nc3ncccc3o2)cc1NC(=O)c1ccc2c(c1)OCO2	1.1	3.2
CCN1CCN(C(=O)Cn2ncc3c2-c2ccccc2OC3)CC1	0.84	-2
Cc1ccccc1-c1nnc(SCC(=O)N2CCCC2)o1	0.92	-0.17
CCN(CCCNC(=O)c1cc(-c2ccncc2)nc2ccccc12)c1ccccc1	0.31*	-7.7*
COc1ccc(N2CCN(C(=O)CCc3c(C)nc4c(-c5ccccc5)c(C)nn4c3C)CC2)cc1	0.94	-0.64
COc1ccc(-c2noc(COc3ccccc3Cl)n2)cc1	1.2	0.22
O=C(NCCCN1CCOCC1)C1C2C=CC3(CN(Cc4cccs4)C(=O)C13)O2 (stereo not drawn)	1.2	3.4
CCOc1ccc2nc(NC(=O)c3ccc(Cc4ccccc4)cc3)sc2c1	0.97	-0.51
COc1cccc(C2=NOC(C(=O)NCC(C)C)C2)c1 (stereo not drawn)	1.1	1.1
CCC1CCCCN1S(=O)(=O)c1ccc(C(=O)Nc2nnc(-c3ccc(Cl)s3)o2)cc1 (stereo not drawn)	0.38*	-7*
COc1cccc(C2=NOC(C(=O)Nc3ccccc3C(F)(F)F)C2)c1 (stereo not drawn)	0.97	-0.44
COc1ccc(CCNC(=O)c2sc3ncn(CC(=O)N4CCCCC4)c(=O)c3c2C)cc1OC	0.88	-1.7
CC(=O)Nc1cccc(NC(=O)CSc2nnc(Cc3cccn3C)n2-c2ccc(C)cc2)c1	0.88	-2.9
CCOC(=O)COc1ccccc1/C=C/c1ccc2cccc(OCc3ccccc3)c2n1	1.2	2.7

3 compounds already listed, sorted by their value in CBX7 AlphaScr z-score, falling:
SMILES,CBX7 AlphaScr z-score
CCOC(=O)COc1ccccc1/C=C/c1ccc2cccc(OCc3ccccc3)c2n1,2.7
COc1cccc(C2=NOC(C(=O)NCC(C)C)C2)c1 (stereo not drawn),1.1
COc1ccc(N2CCN(C(=O)CCc3c(C)nc4c(-c5ccccc5)c(C)nn4c3C)CC2)cc1,-0.64

Other results
SMILES	CBX7 AlphaScr	CBX7 AlphaScr z-score
Cc1ccc(-c2nc3c(cnn3-c3ccccc3)c(=O)n2-c2ccccc2C)cc1	0.75	-9.8
CCOc1nnc(-c2ccc(OC)cc2)c2ccccc12	0.81	-0.73
Cc1ccccc1CN1C(=O)C(O)(CC(=O)c2ccc(Br)cc2)c2ccccc21 (stereo not drawn)	0.94	-0.16
COc1ccccc1Cc1nc2cc(C)c(C)cc2[nH]c1=O	0.95	-1.5
CN1CCN(CC(=O)Nc2nc(-c3ccccc3)cs2)CC1	0.95	-1.3
Cn1cnc2cc(NCc3ccccc3Cl)ccc21	0.92	-1.9
CCOc1ccc(Cn2nnc(-c3ccc(OCc4ccccc4F)cc3)n2)cc1OCC	1.3	7.1
CCOC(=O)N1CCC(NC(=O)c2cc3sccc3n2Cc2ccc(Cl)cc2)CC1	0.92	-2.3
Cc1ccc(S(=O)(=O)NCCSc2nnnn2-c2cc(C)ccc2C)cc1	1	-0.012
Cc1c(C(=O)N2CCC(C)CC2)sc2ncn(CC(=O)N3CCC(C)CC3)c(=O)c12	1.1	1
Cc1c(C(=O)NCCCOC(C)C)sc2nc(-c3ccc(F)cc3)cn12	1.1	2.2
COc1nnc(-c2ccc(N3CCOCC3)c(NC(=O)c3ccc(Cl)cc3)c2)c2ccccc12	0.9	-2.3
COc1cc(O)c(-c2noc(C)c2-c2csc(C)n2)cc1C	0.98	-0.87
COc1ccc(Cn2c(CCC(=O)NCc3ccc(F)cc3)nc3cccnc32)cc1	1	0.26
N#Cc1nc(-c2ccc(F)cc2)oc1NC1CCCCC1	1.2	1.9
Cc1c(Cl)cccc1NC(=O)Cn1c(C(F)(F)F)nc2ccccc21	1.1	2.2
COc1ccc(N2C(=O)CC(NCCN3CCOCC3)C2=O)cc1 (stereo not drawn)	0.53	-7.4
CCOc1ccc(-c2cc(C(=O)NCCCN(C)C)c3ccccc3n2)cc1	1.1	1.5
O=C(NCc1nnc(SCC(=O)N2CCCCCC2)o1)c1cccs1	1.1	2.1
COc1ccc(CCNC(=O)c2nc(-c3ccc(C)cc3)oc2C)cc1OC	0.95	-1.3
CCc1c(-c2ccccc2)nc2ccccc2c1C(=O)NCCCOC	1	0.17
CC(C)C(NS(=O)(=O)c1cccs1)C(=O)N1CCN(c2ccc(F)cc2)CC1 (stereo not drawn)	0.91	-1.7
Cc1ccc(C(=O)NCCc2cc3ccc(C)cc3[nH]c2=O)cc1	0.98	-0.73
O=C(O)CCc1ccc(-c2ccc(F)cc2)n1-c1ccccc1C(F)(F)F	0.97	-0.89
CCOc1ccc(Nc2nc(-c3cccc(C)c3)nc3ccccc23)cc1	1.3	7.3

Random excerpt: 4 entries already listed
SMILES	CBX7 AlphaScr	CBX7 AlphaScr z-score
CC(C)C(NS(=O)(=O)c1cccs1)C(=O)N1CCN(c2ccc(F)cc2)CC1 (stereo not drawn)	0.91	-1.7
Cc1ccccc1C1(c2ccccc2C)CC1C(=O)Nc1cccc(C(F)(F)F)c1 (stereo not drawn)	1	0.21
COc1cccc(C2=NOC(C(=O)Nc3ccccc3C(F)(F)F)C2)c1 (stereo not drawn)	0.97	-0.44
Cc1cc(C)c2oc(-c3cccc(NC(=O)c4cncc(Br)c4)c3)nc2c1	0.87	-1.5

New compounds follow.
SMILES	CBX7 AlphaScr	CBX7 AlphaScr z-score
O=C1c2ccc(N3Cc4ccccc4C3)cc2C(=O)N1c1ccc(Cl)c(Cl)c1	1.1	1.2
O=C(Nc1ccc2nc(-c3cccnc3)[nH]c2c1)c1ccc([N+](=O)[O-])cc1	0.96	-0.41
COc1ccc(NC(=O)CSc2nc(-c3ccccc3)[nH]c2-c2ccc(F)cc2)cc1	0.82	-0.75
Cc1cc(C)cc(NC(=O)C2CCCN(S(=O)(=O)c3c(C)noc3C)C2)c1 (stereo not drawn)	1	0.039
O=C(Nc1ccc(C(F)(F)F)cc1)C1c2ccccc2C(=O)N2CCc3ccccc3C12 (stereo not drawn)	0.88	-2
O=C(NCC1CCCO1)c1cc(=O)[nH]c2ccc(S(=O)(=O)N3CCOCC3)cc12 (stereo not drawn)	1	0.096
CCOc1ccc(-n2c(CCC(=O)O)ccc2-c2cccs2)cc1	0.78	-3.8
COc1cc(Cl)c(C)cc1NC(=O)c1cc2c(s1)-c1ccccc1OC2	1.2	12
O=C1CC(N2CCN(c3ncccn3)CC2)C(=O)N1c1ccccc1 (stereo not drawn)	1	0.45

Compound activity deposited in PubChem BioAssay by several laboratories.

These rows are one share of the data; count on the stated rates, not on these rows.
